# gsp agonist: gsp mutant agonism | gsp mutant cells, cAMP HTRF, 30 min; control for the full effect not named in the record | 340,000 compounds, 0.13% hits | Potency, µM (top dose mostly 76.9 µM), for inactives: at the top dose activation (cAMP increase), usual class: activators; active = well fitted activation curve with a large enough effect; inconclusive = small, poorly fitted or top-dose-only effect, or another doubt; inactive = no such curve, though single readings can be large or run the other way; cell line not stated here;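 also: phosphodiesterase inhibitor Ro 20-1724 added with compounds to block cAMP breakdown; potency is read from the fitted curve at half-maximal effect; nearly all actives have a fitted effect of over 60% in size; about a fifth of the inactives were tested at one dose only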
#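 Cells in DMEM/10% FBS with G418 were pretreated with compounds in DMSO plus […] (300 uM stock) for 30 min at 37C. cAMP was measured by HTRF (cAMP-d2 plus anti-cAMP antibody-K) after 30 min at room temperature.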
# D2 ag: human D2 receptor agonism in beta-arrestin assay; activation, % (no concentration beside the values); DiscoveRx PathHunter D2 beta-arrestin, luminescence, 90 min; 100% = 57 uM dopamine signal; 360,000 compounds, 0.084% hits; in the data active = activation above about 40%; inconclusive = about 15% to 40%; inactive = below about 15%; also: compound concentration not given in the record; the text of the record calls up to 30% inactive
# Target sequence (P14416 whole entry, looked up): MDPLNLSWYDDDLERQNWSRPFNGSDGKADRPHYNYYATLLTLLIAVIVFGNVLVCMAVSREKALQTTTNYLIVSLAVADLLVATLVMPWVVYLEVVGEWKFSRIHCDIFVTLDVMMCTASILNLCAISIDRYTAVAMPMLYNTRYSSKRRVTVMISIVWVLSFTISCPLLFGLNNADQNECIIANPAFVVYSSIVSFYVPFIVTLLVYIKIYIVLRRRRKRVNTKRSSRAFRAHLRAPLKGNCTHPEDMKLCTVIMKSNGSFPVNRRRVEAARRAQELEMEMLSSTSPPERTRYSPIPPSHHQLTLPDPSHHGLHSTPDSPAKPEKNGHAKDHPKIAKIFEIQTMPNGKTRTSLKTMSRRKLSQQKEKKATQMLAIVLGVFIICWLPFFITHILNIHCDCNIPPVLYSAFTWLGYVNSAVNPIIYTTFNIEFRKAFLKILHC
#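 Agonist mode: compounds alone added to overnight-plated D2 PathHunter cells for 90 min at 37 C, with 57 uM final dopamine (EC100) defining full response. Beta-arrestin recruitment detected by chemiluminescent reagent, read after 1 h at ambient temperature.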
# Menin-MLL FL inh: displaces fluorescein MLL peptide from human menin; Fluorescence polarization, fluorescein-MLL peptide displacement from menin; FP activity change, % at 61.4 µM; 290,000 tested, under 10 active; inconclusive = falling polarisation curve, or a change in total fluorescence; inactive = total fluorescence flat and polarisation flat or rising; no compound was filed as active; the % refers to the polarisation; negative = inhibition;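 also: % of control where 0% means no effect; inhibitors lower the polarisation; unlabelled MLL peptide was the positive control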
# Sfp inh: Sfp phosphopantetheinyl transferase inhibition; 310,000 compounds, 3.5% hits; AID 1490; Potency, µM, without a hit: max response, negative = inhibition, actives largely listed as inhibitors; Biochemical Sfp PPTase activity, qHTS; active = well fitted inhibition curve with a large enough effect; inconclusive = small, poorly fitted or top-dose-only effect, or another doubt; inactive = no such curve, though single readings can be large or run the other way;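 also: the enzyme is Sfp with the accession as filed and its product quenches rhodamine fluorescence; potency is read from the fitted curve at half-maximal effect; 0% = enzyme reaction without inhibitor and -100% = no enzyme wells; top concentration of the series not given in the record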
#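 With Hepes-Na pH 7.6 buffer containing 10 mM MgCl2, Sfp (15 nM) modified BHQ-2-YbbR (12.5 uM) using rhodamine-CoA (5 uM). Two reads 30 minutes apart at 525/598 nm yielded each well's rate.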
# ClpP mod: qHTS Assay for Activators of ClpP; ATP-dependent Clp protease proteolytic subunit (Bacillus subtilis (strain 168)), P80244; purified B. subtilis ClpP, FRET peptide cleavage, 20 min; Potency, µM (doses to about 57.5 µM), for inactives: at the highest dose activity change, negative = active; 340,000 compounds, 1.9% hits; active = well fitted falling curve with a large enough effect; inconclusive = small, poorly fitted or top-dose-only effect; inactive = no such curve, though single readings can be large or run the other way; also: potency is read from the fitted curve at half-maximal effect; the source files actives as falling curves though it sought activators and does not explain the sign; nearly all actives have a fitted effect of over 65% in size; many hits overshoot -100%
# Target sequence (P80244 whole entry, looked up): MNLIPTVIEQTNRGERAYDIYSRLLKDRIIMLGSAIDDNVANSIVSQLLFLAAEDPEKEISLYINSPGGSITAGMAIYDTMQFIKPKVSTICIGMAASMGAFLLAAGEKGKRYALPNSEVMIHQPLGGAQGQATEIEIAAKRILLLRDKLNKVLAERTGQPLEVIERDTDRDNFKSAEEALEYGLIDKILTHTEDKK
#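 ClpP 10 microg/mL final, pH 8 Tris/KCl buffer with BSA, glycerol, Tween-20; compound pinned in; FRET-FV substrate; RT 20 min; Ex320/Em430; ΔFRET vs ADEP 5.8 microM, DMSO, no enzyme.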
# PINK1 modulator: changes PINK1 expression; PINK1 immunofluorescence, high-content cytometry, 24 h; Potency, µM (series often up to 76.6 µM), inactives show top-dose activation (PINK1 increase), usual class: activators; 410,000 compounds, 0.2% hits; AID 624263; active = well fitted activation curve with a large enough effect; inconclusive = small, poorly fitted or top-dose-only effect; inactive = flat fitted curve, though single readings scatter; cell line not stated here;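 also: potency is read from the fitted curve at half-maximal effect; % of control where 0% means no effect; nearly all actives have a fitted effect of over 65% in size; a mitochondrial uncoupler was the plate control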
#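 A stable cell line was treated with compounds at 5 concentrations for 24 hours, with CCCP as control. PINK1 levels and mitochondrial localization were measured by immunofluorescence with mitochondrial, cell and nuclear markers after fixation, read by laser-scanning cytometry.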
# gsp antag: antagonists of gsp mutant (McCune-Albright syndrome); gsp-mutant cells, cAMP HTRF, 30 min; control for the full effect not named in the record; Potency, µM (highest dose often 76.9 µM), inactives show at the top dose activity change, negative = inhibition, actives largely listed as inhibitors; 340,000 compounds, 0.4% hits; AID 624288; active = falling curve of any shape with a large fitted effect; inconclusive = falling curve, mostly with a smaller effect; inactive = flat or rising curve; cell line not stated here;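 also: intracellular cAMP measured with PDE inhibitor Ro 20-1724 present during compound exposure; potency is read from the fitted curve at half-maximal effect; % is scaled to controls: 0 for no effect and ±100 for the full control effect; nearly all actives have a fitted effect of over 65% in size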
#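 HTRF cAMP read-out (cAMP-d2 plus anti-cAMP antibody-K in lysis buffer, 30 min RT). Before lysis, cells are exposed to compounds with […] for 30 min at 37C in DPBS containing Ca/Mg, BSA and Tween 20.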
# The depositor's hits bear a star; ? = inconclusive; · = no result given; [ ] = another dose, or the depositor's remark.
SMILES,gsp agonist,D2 ag,Menin-MLL FL inh,Sfp inh,ClpP mod,PINK1 modulator,gsp antag
O=C(NC1Cc2ccccc2C1)c1cc(COc2cccc(C(F)(F)F)c2)on1,?,-2.4,1.7,24.0%,-1.2%,4.2%,-1.1%
COc1cc(OC)cc(-c2nc3ccccc3c(=O)n2OC(=O)c2ccc(Br)cc2)c1,4.3%[15.4 µM],-1.1,2.8,11.2%,·,3.1%,-1.3%
C=CCN1C(=O)OC2(CCCCC2)C1(C)O (centres undefined),-3.1%,-0.2,6.8,11.3%,-1.3%,3.4%,10.2%
CCOC(=O)C1CCN(c2c(NCCCN(CC)Cc3ccccc3)c(=O)c2=O)CC1,-3.3%,-2.0,-0.9,22.6%,0.3%,2.6%[38.3 µM],-1.9%
COCc1nnc(NC(=O)c2ccco2)s1,-6.1%,-1.5,1.4,3.4%,-1.5%,-2.3%,7.6%
CSCC[C@H](NS(=O)(=O)c1ccc(C)cc1)C(=O)N1CCC(C(=O)N[C@H](C(=O)O)c2ccccc2)CC1,·,-2.7,-2.2,13.2%,-3.2%,-0.4%,-5.7%
CC1(C(=O)Nc2ccc(Cl)c(Cl)c2)CCN1C(=O)CCC1CCCC1 (centres undefined),·,-3.1,·,·,-0.7%,28.2%,·
CC(=O)NN(O)C1N(C)C(=O)N(Cc2ccccc2)C1(C)C (centres undefined),3.0%[15.4 µM],-5.1,·,·,1.3%,-0.7%,10.5%
Cc1c(Cl)cccc1NC(=O)CCCn1cnc([N+](=O)[O-])n1,-3.3%[15.4 µM],4.9,-1.4,21.3%,·,-0.8%,7.7%
CC(NC(=O)c1ccccc1NC(=O)c1ccco1)C(=O)O (centres undefined),0.0%,-0.8,1.6,-8.2%,-2.2%,-1.2%,8.3%
CC(NC(=O)c1c(Cl)cnn1C)C1CCCO1 (centres undefined),-11.3%,-3.5,4.9,13.5%,-0.5%,1.2%,3.6%
O=C(COc1ccccc1)NC1CCSC1=O (centres undefined),8.2%,5.1,0.0,13.6%,·,-1.0%,4.4%
CC(=O)c1cccc(NC(=O)C2(C)Cc3c(-c4cccc(C(F)(F)F)c4)ccnc3O2)c1 (centres undefined),·,-5.3,·,·,0.1%,3.3%,·
CCOC(=O)CC(=O)CSc1[nH]c(=O)cc(C)c1C#N,-5.3%,-2.4,2.7,50.1µM*,22.6%,-0.2%,-4.8%
O=C(Cc1ccccc1)N/N=C/C=C/c1cccc([N+](=O)[O-])c1,5.5%,2.9,-0.2,23.2%,-1.0%,5.1%,5.1%
CCNC(=O)CC1C(=O)N(CC)C(=S)N1NC(=O)c1ccccc1 (centres undefined),?,2.7,4.3,-2.8%,·,0.8%,4.4%
CCCCc1ccc(/C=C2\C(=O)ON=C2c2ccccc2)s1,21.4%,-1.1,3.0,-2.9%,0.6%,-0.5%,1.3%
CCOc1ccc(C(F)(F)F)cc1NC(=O)c1ccc(OC)c([N+](=O)[O-])c1,-25.3%,0.2,0.7,-3.2%,-2.5%,·,-11.6%
CC(=O)Nc1ccc(NC(=O)CSCCc2ccccn2)cc1,0.0%,-1.2,5.5,-16.2%,0.5%,1.3%[38.3 µM],-5.3%
CC(=O)N1CCN=C1SCc1cccc(C)c1,?,-4.0,·,16.0%,-1.0%,-0.5%,-14.0%
COc1ccc(/C=N/OCC(=O)N=Nc2c(O)[nH]c3ccc(Br)cc23)cc1,-10.2%[15.4 µM],6.0,-6.7,0.4%,·,-0.4%,-12.1%
O=C(O)c1ccccc1-c1ccccc1C(=O)NCc1cccnc1,11.8%[15.4 µM],6.0,-3.4,8.9%,·,-0.2%,11.5%
c1cnc2c(C3NCCc4c3[nH]c3ccccc43)cccc2c1 (centres undefined),·,-9.0,-4.2,-0.8%,-3.2%,0.0%,2.2%
O=C(NCCN1CCOCC1)c1cccc(S(=O)(=O)N2CCCC2)c1,-2.6%,-5.0,·,8.0%,-1.6%,1.2%,8.9%
CC(=O)Nc1ccc(Oc2ccccc2)cc1,14.3%,-7.4,2.6,14.2%,0.0%,2.7%,4.5%
SMILES,gsp agonist,D2 ag,Menin-MLL FL inh,Sfp inh,ClpP mod,PINK1 modulator,gsp antag
CC(=O)NCCCc1nc2ccccc2n1Cc1ccccc1C,2.1%,-5.0,0.5,13.6%,-0.8%,-0.5%[38.3 µM],-4.0%
CCCn1c(SCC(=O)NCc2ccc(Cl)cc2)n[nH]c1=O,-4.6%[15.4 µM],-7.2,0.0,11.3%,-1.5%,0.3%,2.5%
C[C@H](CO)N1C[C@H](C)[C@H](CN(C)S(=O)(=O)c2cccc(F)c2)Oc2ncc(-c3cccc(C(=O)N(C)C)c3)cc2C1=O,21.9%,-2.0,·,·,-1.6%,0.1%,·
COc1cc(CC(NC(C)=O)C(=O)NC2CCN(c3c(Cc4ccccc4)c(C)nc4ncnn34)CC2)cc(OC)c1 (centres undefined),-21.6%[15.4 µM],1.2,1.5,16.4%,2.7%,?,1.4%
O=C(Nc1oc2ccccc2c(=O)c1-c1ccc(Br)cc1)c1ccco1,23.2%,-5.6,·,-5.5%,1.2%,1.7%,7.5%
O=C(CCN1C(=O)C2C3C=CC(C4CC34)C2C1=O)Oc1ccccc1 (centres undefined),11.0%,-2.5,-1.7,9.1%,1.4%,0.1%,16.1%
CCn1c2c(c(=N)c3c1CCC3)CCCC2,23.4%[15.4 µM],-0.6,1.7,3.7%,·,-0.9%,7.5%
COc1ccc(C(=O)COC(=O)[C@@H](NS(=O)(=O)c2ccccc2)C(C)C)cc1,3.6%,-4.1,·,·,-2.0%,-0.5%,-6.7%
Cc1nc2c(cc1NC(=O)c1ccccc1)nc(C)n2Cc1ccccc1,-0.1%,-5.0,2.1,-4.7%,1.3%,0.3%,-1.7%
CC(=O)c1ccc(OC(=O)c2nc(-c3ccccc3)oc2C)cc1,23.1%[15.4 µM],-0.3,1.8,12.1%,·,0.5%,-9.5%
c1ccc(Oc2nc(-c3cccnc3)nc3ccccc23)cc1,3.4%,-5.2,1.2,?,-3.6%,2.9%,-3.6%
O=C(NC1CCCCC1)C(c1cccs1)N(C(=O)Cc1c[nH]c2ccccc12)c1ccc(F)cc1 (centres undefined),-12.0%,1.2,4.2,15.4%,-7.3%,·,10.0%
CCOC(=O)[C@@H]1[C@H]2COc3cc(OC)ccc3[C@@H]2N2C(=O)N(c3ccccc3)C(=O)[C@@]12C,-41.7%[inhibitor],-2.0,·,·,-4.1%,-0.8%,2.0%
O=C(CSc1nnc(-c2ccncc2)o1)NCc1ccccc1Cl,-8.4%[15.4 µM],-2.7,0.1,10.9%,·,1.3%,4.9%
Cc1cc(C)c(NC(=O)c2cccc3c2C(=O)N(C2CCCCC2)C3)c(C)c1,4.1%,0.7,·,-13.2%,-1.7%,14.3%,-11.8%
Nc1ccccc1OCP(=O)(c1ccccc1)c1ccccc1,?,-5.2,3.5,8.0%,3.6%,-0.1%,7.0%
COc1cc(C)nc(-c2csc(C)n2)n1,0.7%,-7.0,2.5,-0.8%,-1.0%,1.6%,4.5%
Nc1c(Br)cc(Br)c(N2CCCC2=O)c1Br,-5.4%,-0.8,-1.4,16.3%,1.8%,1.3%,3.6%
CC(=O)Nc1ccc(S(=O)(=O)N2C3CCCC2CC(NC(=O)C2CCCCC2)C3)cc1 (centres undefined),8.4%,-2.2,-0.9,10.5%,0.8%,5.7%,-0.8%
COc1ccccc1CNC(=O)C1CCCN(S(C)(=O)=O)C1 (centres undefined),17.5%,-0.1,-1.4,-5.8%,-6.3%,·,-5.8%
CC(=O)Nc1ccc(NC(C)=O)c(NC2OCC(O)C(O)C2O)c1 (centres undefined),-10.5%[15.4 µM],-3.7,4.3,14.8%,·,2.8%,12.1%
CCN(CC)S(=O)(=O)c1ccc(N2CCN(S(=O)(=O)c3ccc4c(c3)OCCO4)CC2)nc1,11.6%,-3.6,4.8,3.5%,?,-2.1%,-1.4%
Cc1noc(C)c1S(=O)(=O)N1CCC(C(=O)N2CCN(C(=O)c3ccco3)CC2)CC1,1.2%,-3.5,-1.4,5.3%,0.9%,-0.6%,5.7%
CCCS(=O)(=O)c1c(S(=O)(=O)CCC)c2c(N)cccn2c1C(=O)c1ccc(F)cc1,4.6%,-4.2,?,22.4µM*,-0.1%,-3.1%,?
O=C(COC(=O)c1ccccn1)NCc1ccccc1Cl,-62.2%[inhibitor],-1.1,4.4,6.2%,-13.6%,4.9%,-1.7%
SMILES,gsp agonist,D2 ag,Menin-MLL FL inh,Sfp inh,ClpP mod,PINK1 modulator,gsp antag
Cc1c(NC(=S)NC(=O)CCc2ccccc2)c(=O)n(-c2ccccc2)n1C,-10.7%[15.4 µM],-4.7,0.7,14.3%,1.1%,-1.9%,-7.4%
COc1ccc(-c2cn3c(C)c(C(=O)N4CCc5ccccc5C4)sc3n2)cc1,-71.3%[inhibitor],-5.4,-0.5,-9.1%,-1.3%,3.4%,-20.9%
CCOC(=O)C1=C(COC(=O)C(C)(C)Oc2ccc(Cl)cc2)NC(=O)NC1C (centres undefined),-33.6%[inhibitor],-0.4,·,·,1.3%,0.5%,8.7%
O=C(Cc1ccc(NC(=O)C2CCN(C(=O)c3ccccc3)CC2)cc1)Nc1ccc(C(=O)N2CCOCC2)cc1,·,-1.8,·,·,1.7%,-0.8%,2.1%
CC(C)c1ccc(CSc2ccc(S(=O)(=O)N3CCOCC3)cn2)cc1,-5.3%,-1.4,·,·,1.5%,10.1%,12.1%
CCC1CCCCN1CCCNC(=O)c1ccc2c(=O)n(Cc3ccc(OC)cc3)c(=O)[nH]c2c1 (centres undefined),?,-2.1,3.1,21.2%,-11.7%,-0.5%,12.9%
N/C(=N\OC(=O)c1ccco1)c1cccnc1,-0.7%[15.4 µM],5.9,-2.3,-14.1%,·,1.6%,6.1%
O=C(NC(=S)NNC(=O)c1ccccc1F)c1cccnc1,0.2%[15.4 µM],0.4,-4.4,?,·,2.3%,9.6%
O=C(CCN1CCc2ccccc2C1)Nc1ccc(F)c(F)c1,-45.8%[inhibitor],0.2,-0.7,-8.7%,-0.7%,0.6%,7.4%
COc1ccc(/C=N/NC(=O)C2c3ccccc3-c3ccccc32)cc1,10.3%,-0.3,3.5,5.6%,-13.9%,18.4%,1.5%
COC(=O)C1=C/CCCN(C(c2ccccc2)c2ccccc2)/C=C\1C(=O)OC,-47.7%[inhibitor],-0.1,·,·,-1.9%,2.1%,·
Cc1ccc(NC2CCCN(C(=O)CCC(=O)c3ccccc3)C2)cc1C (centres undefined),32.0%,-1.0,-3.6,6.8%,1.6%,1.2%,-24.8%
CC1(C)Oc2nc3ccccc3n2/C1=C\C#N,-0.1%,-1.2,8.6,12.7%,1.4%,-0.1%,7.1%
